# High-throughput results: PubChem, National Center for Advancing Translational Sciences (NCATS)
# Hsp90 Hop PPI – changes Hsp90-Hop TPR2A binding signal, up or down | AlphaScreen TPR2A-His6 binding biotin-Hsp90 C-terminal peptide | Potency, µM (top dose mostly 57 µM), inactives show top-dose activity change, negative = inhibition | 71,000 compounds, 0.44% hits | AID 595; active means well fitted curve in either direction with a large enough effect; inconclusive means small, poorly fitted or top-dose-only effect, or another doubt; further: potency means the concentration at half of the fitted maximal effect; on the % scale 0 is the no-effect control and ±100 the full control effect; many of its hits are not listed in these tables
# TexasRed autofl – compound fluoresces in the Texas Red spectral region; Compound fluorescence, Texas Red channel, 547/618 nm; stronger effect = higher value; max dye-equivalent concentration, M; 59,000 compounds, 0.06% hits; AID 587; in the data active means max dye-equivalent concentration above about 10 nM; inconclusive means between about 1.1 nM and that limit
#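 Texas Red-region profiling: compounds in 100 mM Tris pH 8.0 were read at 547/618 nm after 15 min at room temperature. Intensities were normalized against a six-point Texas Red standard series to give dye-equivalent concentration.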
# DNA Pol III inh – blocks replication by bacterial DNA polymerase III holoenzyme; AID 603; Potency, µM (series often up to 57.1 µM), for the others: at the top dose activity change, negative = inhibition; 71,000 compounds, 0.25% hits; reconstituted DNA polymerase III holoenzyme replication, biochemical; further: potency means the concentration at half of the fitted maximal effect; on the % scale 0 is the no-effect control and ±100 the full control effect
#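 Reconstituted *E. coli* holoenzyme (0.35 nM Pol III, 1 nM beta, 154 nM SSB, 2 nM primase) was preincubated with compound for 15 min at RT. Synthesis on 1.4 nM ssM13Gori ran 35 min, then was stopped with PicoGreen/EDTA and read as dsDNA fluorescence.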
# Fluorescein autfl – compound fluoresces in the fluorescein spectral region | max fluorescein-equivalent concentration, M | 59,000 compounds, 0.91% hits | AID 593 | Compound autofluorescence, 480/540 nm, fluorescein-equivalent; stronger effect = higher value; in the data active means max fluorescein-equivalent concentration above about 10 nM; inconclusive means between about 1.1 nM and that limit
#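 Read-out is intrinsic compound fluorescence at 480/540 nm (excitation/emission), expressed as dye-equivalent concentration using a fluorescein standard series run on every plate. Compounds sat 15 min at room temperature in 100 mM Tris, pH 8.0.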
# Ub-GFP proteasome – proteasome inhibitors stabilizing ubiquitin-GFP reporter. 67,000 tested, under 10 active. Ubiquitin-GFP reporter cells, proteasome inhibition, GFP fluorescence; response scale: untreated = 0%, 10 µM MG-132 = 100%. Potency, µM (doses to about 45.9 µM), for inactives: at the highest dose activation (GFP accumulation), most hits filed as activators; active means well fitted activation curve with a large enough effect, not every such curve was filed as active; inconclusive means small, poorly fitted or top-dose-only effect, or another doubt; inactive means no such curve, though single readings can be large or run the other way; further: potency means the concentration at half of the fitted maximal effect
#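 Reporter cells (U2OS, ubiquitin-G76V-GFP fusion) are plated overnight, then treated 4 hr at 37 °C with compound titrations from 46 uM down to 2.9 nM. Activity is scaled against untreated cells and 10 uM MG-132.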
# Rhodamine autofl – compound autofluorescence in rhodamine spectral region; Rhodamine-region fluorescence, 547/598 nm, Tris buffer; stronger effect = higher value; max dye-equivalent concentration, M; 59,000 compounds, 0.05% hits; in the data active means max dye-equivalent concentration above about 11 nM; inconclusive means between about 1.1 nM and that limit
#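 Compound fluorescence in 100 mM Tris, pH 8.0, read after 15 min at room temperature with 547 nm excitation and 598 nm emission. Output is dye-equivalent concentration from an on-plate rhodamine standard series.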
# Epigenetic mod – epigenetic modulators derepressing GFP locus in mouse cells; mouse C127i GFP locus derepression, cytometry, 30 h; Potency, µM (highest dose often 46.1 µM), for the others: at the highest dose GFP derepression (activation); 68,000 compounds, 0.09% hits; further: % of control where 0% means no effect
#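 Read-out is the number of GFP-positive cells, scored as fluorescent objects 20 to 120 um wide, reflecting derepression of a silenced CMV-GFP reporter in murine C127i cells after 30 h compound exposure at 37 C.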
# ALOX15 inhib – inhibitors of human 15-lipoxygenase (ALOX15); 74,000 compounds, 1.4% hits; Potency, µM (top dose mostly 57.1 µM), for the others: at the highest dose activity change, negative = inhibition, usual class: inhibitors; purified 15hLO-1, xylenol orange hydroperoxide absorbance; P16050; AID 887; further: potency means the concentration at half of the fitted maximal effect; on the % scale 0 is the no-effect control and ±100 the full control effect; nearly all actives have a fitted effect of over 55% in size
# Target sequence (P16050 whole entry, looked up): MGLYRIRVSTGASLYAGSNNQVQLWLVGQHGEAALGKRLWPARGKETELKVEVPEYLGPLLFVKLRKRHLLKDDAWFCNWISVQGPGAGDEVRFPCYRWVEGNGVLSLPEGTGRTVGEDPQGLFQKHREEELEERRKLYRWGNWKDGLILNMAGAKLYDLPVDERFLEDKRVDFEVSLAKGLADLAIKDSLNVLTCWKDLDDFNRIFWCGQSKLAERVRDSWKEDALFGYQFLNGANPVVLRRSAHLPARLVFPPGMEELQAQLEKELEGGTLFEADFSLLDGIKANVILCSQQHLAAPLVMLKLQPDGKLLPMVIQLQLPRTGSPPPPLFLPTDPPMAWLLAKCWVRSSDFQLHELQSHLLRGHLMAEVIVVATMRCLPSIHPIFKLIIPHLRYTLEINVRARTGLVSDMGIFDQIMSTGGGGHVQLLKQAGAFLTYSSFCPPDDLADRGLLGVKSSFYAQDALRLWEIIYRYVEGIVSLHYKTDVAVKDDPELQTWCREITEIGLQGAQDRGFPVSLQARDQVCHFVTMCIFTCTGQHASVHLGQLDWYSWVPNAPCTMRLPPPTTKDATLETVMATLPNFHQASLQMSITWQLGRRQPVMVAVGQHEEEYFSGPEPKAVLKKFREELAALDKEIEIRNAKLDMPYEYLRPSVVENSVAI
#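 Compounds were preincubated 15 min at room temperature with 40 nM purified human enzyme (25 mM Hepes pH 7.5, 0.01% Triton X-100); 50 uM arachidonic acid reacted 6 min. Fe-xylenol orange detection, 30 min, absorbance ratio 573/405 nm.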
# HBB splicing – alters splicing of the hemoglobin beta chain. HBB splicing reporter cell assay, activation; EGFP reporter with mutant IVS2-654 intron; response scale: normalised to 500 nM splice-correcting PNA. 65,000 compounds, 0.06% hits. Potency, µM (top dose mostly 46.1 µM), inactives show top-dose activation, most hits filed as activators. AID 925; further: potency means the concentration at half of the fitted maximal effect; 0% is about no effect
#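 Compounds were applied for 2 days to HeLa EGFP-654 cells, 500/well in Optimem with 2% FCS. The reporter's EGFP is disrupted by mis-splicing of beta-globin intron IVS2-654. Readout: summed well GFP fluorescence from 488 nm laser scanning; reference was 500 nM antisense […] 654 PNA.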
# * hit, by the source's call; i = inactive; ? = inconclusive; / = not tested or not shown; & = joins results of further samples; [ ] = another dose, or the depositor's remark. Unless noted, the call rests on the fitted dose curve; in most records, active means well fitted curve in the direction sought with a large enough effect; inconclusive means small, poorly fitted or top-dose-only effect, or another doubt; inactive means no such curve, though single readings can be large; an effect the other way counts as inactive or inconclusive. Some of the compounds tested; count on the stated rates, not on these rows.
SMILES,Hsp90 Hop PPI,TexasRed autofl,DNA Pol III inh,Fluorescein autfl,Ub-GFP proteasome,Rhodamine autofl,Epigenetic mod,ALOX15 inhib,HBB splicing
CCc1cc(C(=O)OC)c(NC(=O)CCC(=O)O)s1,-1%,i,-1%,?,0%,i,4%,-13%,0.5%
O=C(Nc1nc2ccc(S(=O)(=O)N3CCCC3)cc2s1)C1CCCCC1,-3%,i,8%,i,6%,i,0%,-22%,4.9%
Cc1ccc(Cn2nc(C)c(NC(=O)c3noc4c3CCCCC4)c2C)cc1,-9%,i,-4%,i,0%,i,3%,-11%,1.9%
Nc1nc2c(ncn2COCCO)c(=O)[nH]1,2%[26 µM],?,2%[25.6 µM],?,3%[20.5 µM],i,4%[20.6 µM],4%,1.8%[20.6 µM]
CCNc1ncc2ncc(=O)n(Cc3ccc(F)cc3)c2n1,5%,i,-6%,?,-9%,i,?,-10%,-0.4%
O=C1NCCN1c1ncc([N+](=O)[O-])s1,-2%[26 µM],i,-8%[25.6 µM],?,-9%[20.5 µM],i,0%[20.6 µM],12%[25.6 µM],1.3%[20.6 µM]
COC(=O)c1nc(-c2ccc(C)cc2)oc1N(C)C,-3%,?,-1%,i,2%,i,-1%,0%,-0.9%
COC(=O)c1ccc(NC(=O)C2CCCN2S(=O)(=O)c2ccc(OC)cc2)cc1 (stereo not drawn),0%,i,6%,i,14%,i,-2%,1%,0.5%
CC(C)c1nc(=S)c2ccccc2[nH]1,-3%,i,-10%,?,-2%,i,0%,-16%,-0.6%
CC(C)NC[C@H](O)c1ccc(O)c(O)c1,?,?,-12%,?,0%,i,?,?,1.3%[20.6 µM]
COc1cc2c(cc1OC)CN(C(=O)COc1ccc(C#N)cc1)CC2,-1%,i,-4%,i,-3%,i,2%,0%,-0.3%[57.5 µM]
COc1ccc(OC)c(NS(=O)(=O)c2ccc(Cl)s2)c1,-3%,i,2%,i,5%,i,0%,5%,1.3%
O=C(Nc1cccnc1)c1noc2c1CCCC2,-2%,?,2%,i,-8%,i,9%,3%,-2.1%
CNc1ncncc1-c1ccc(C(=O)N(C)C)cc1,-7%,i,-3%,i,-1%,i,2%[9.22 µM],?,-1.3%
c1ccc(OCc2nnc3sc(-c4cccs4)nn23)cc1,2%,i,-3%,i,-2%,i,2%,?,0.0%[57.5 µM]

# Filtered by structure, the compounds so far containing a thiophene ring, fused or not.
SMILES,Hsp90 Hop PPI,TexasRed autofl,DNA Pol III inh,Fluorescein autfl,Ub-GFP proteasome,Rhodamine autofl,Epigenetic mod,ALOX15 inhib,HBB splicing
CCc1cc(C(=O)OC)c(NC(=O)CCC(=O)O)s1,-1%,i,-1%,?,0%,i,4%,-13%,0.5%
COc1ccc(OC)c(NS(=O)(=O)c2ccc(Cl)s2)c1,-3%,i,2%,i,5%,i,0%,5%,1.3%
c1ccc(OCc2nnc3sc(-c4cccs4)nn23)cc1,2%,i,-3%,i,-2%,i,2%,?,0.0%[57.5 µM]

# Other entries
SMILES,Hsp90 Hop PPI,TexasRed autofl,DNA Pol III inh,Fluorescein autfl,Ub-GFP proteasome,Rhodamine autofl,Epigenetic mod,ALOX15 inhib,HBB splicing
Cc1occc1C(=O)n1nnc2ccccc21,-5%,?,-9%,i,-10%,i,-3%,-7%,-0.7%
CCOc1ccc(-n2c(SCC(=O)Nc3ccc4c(c3)OCCO4)nc3c(c2=O)SCC3)cc1,-6%,i,-1%,i,7%,i,0%,-2%,-5.0%
COc1cc(-c2nc3cnccn3c2Nc2ccc3c(c2)OCCO3)ccc1O,-2%,?,-9%,?,8%,i,-3%,-27%,-0.7%
CCNC(=O)CC1C(=O)N(c2ccc(F)cc2)C(=O)N1Cc1ccc(OC)cc1 (stereo not drawn),5%,i,2%,i,-4%,i,0%,9%,5.8%
CCc1ccc(CCC(=O)Nc2sc3c(c2C#N)CCCC3)o1,0%,i,-4%,?,3%,i,1%,16µM*,-0.9%
O=C(CCSc1nc(-c2ccco2)cc(C(F)(F)F)n1)NCc1ccccn1,-3%,i,-2%,i,-3%,i,7%,0%,-0.4%[57.5 µM]
Cc1ccc(Cn2ccc(NC(=O)CCSc3nc(-c4ccco4)cc(C(F)(F)F)n3)n2)cc1,-1%,i,2%,i,0%,i,-2%,-13%,2.6%
N#Cc1c(N)sc2c1CCCCCC2,-12%,i,0%,i,1%,i,0%,?,0.6%
COC(=O)c1cc2c(=O)n3ccccc3nc2n(Cc2cccnc2)c1=N,-6%,i,-5%,?,3%,i,-3%,5%,-1.3%
Cc1nn(C)cc1NC(=O)CCSc1nc(-c2ccco2)cc(C(F)(F)F)n1,-2%,i,-1%,i,-5%,i,10%,0%,0.1%[57.5 µM]
c1cncc(-c2nnc(-c3ccco3)o2)c1,0%,i,1%,i,2%,i,-1%,6%,/
O=C(Nc1nnc(CCc2ccccc2)s1)c1cccs1,-1%,?,-5%,i,10%,i,0%,-3%,-1.2%
O=C(NC1CCS(=O)(=O)C1)C1CCCCN1S(=O)(=O)c1ccc(Cl)cc1 (stereo not drawn),-2%,i,1%,i,13%,i,1%,-14%,-1.7%
CCN(CC)S(=O)(=O)c1ccc2[nH]cc(C(=O)NCCN3CCCCCC3)c(=O)c2c1,-12%,?,-9%,i,-4%,i,-2%,-17%,4.5%[57.5 µM]
C=CCNC(=O)C(C)Sc1ccc(Cl)cc1 (stereo not drawn),-3%,i,-6%,i,0%,i,-2%,-19%,-0.7%

# Part of the list above in a different format:
# Values run as follows: Hsp90 Hop PPI, TexasRed autofl, DNA Pol III inh, Fluorescein autfl, Ub-GFP proteasome, Rhodamine autofl, Epigenetic mod, ALOX15 inhib, HBB splicing
> c1cncc(-c2nnc(-c3ccco3)o2)c1
 : 0%, i, 1%, i, 2%, i, -1%, 6%, /
> O=C(Nc1nnc(CCc2ccccc2)s1)c1cccs1
 : -1%, ?, -5%, i, 10%, i, 0%, -3%, -1.2%

# Marked active in ALOX15 inhib (from the list above):
Molecule	Hsp90 Hop PPI	DNA Pol III inh	Fluorescein autfl	Ub-GFP proteasome	Rhodamine autofl	Epigenetic mod	ALOX15 inhib
CCc1ccc(CCC(=O)Nc2sc3c(c2C#N)CCCC3)o1	0%	-4%	?	3%	i	1%	16µM*

# Other results
SMILES,Hsp90 Hop PPI,TexasRed autofl,DNA Pol III inh,Fluorescein autfl,Ub-GFP proteasome,Rhodamine autofl,Epigenetic mod,ALOX15 inhib,HBB splicing
CCOC(=O)c1nnn(CC(=O)Nc2cccc(F)c2)c1C(=O)OCC,-5%,i,-1%,i,-5%,i,-2%,3%,-0.4%
O=C(Nc1ccccc1)N(O)c1ccc(Cl)cc1,3%,i,-2%,i,-10%,i,1%,?,-0.9%
Cc1cc(=O)n(CCc2ccccc2)c(O)c1C#N,?,?,2%&8%,i,8%&10%,i,0%&-3%,-27%&-24%,1.5%
O=C(c1ccc2ccccc2c1)N1CCN(c2ccc(O)cc2)CC1,?,i,-2%,?,-3%,i,-4%,3.2µM*,0.6%
C=CCn1c(SCC(=O)c2ccc(CNC(C)=O)o2)nc2scc(C3CC3)c2c1=O,-7%,i,1%,i,-14%,i,1%,?,-0.7%
Cc1ccc(C2CC(=O)N3CN(Cc4ccco4)CSC3=C2C#N)cc1 (stereo not drawn),-7%,?,-1%,?,0%,i,1%,?,2.0%[0.369 µM]
CCOC(=O)c1ccc(NS(=O)(=O)c2ccc3[nH]c(=O)[nH]c3c2)cc1,-8%,?,-6%,i,5%,i,8%,?,3.1%
COc1cccc(-c2nn(C)c3sc(C(=O)NCc4ccc(C)o4)cc23)c1,6%,i,4%,i,-5%,i,0%,-23%,-1.8%
CCCCOc1ccc(-c2nnc(-c3ccco3)o2)cc1,14%,i,-4%,i,11%,i,1%,-13%,/
COC(=O)c1sc(=S)n(-c2cccc(Cl)c2)c1N,-8%,i,-6%,i,/,i,0%,?,0.7%[0.369 µM]
COC(=O)c1ccccc1NC(=O)C1CC(c2ccccc2O)=NO1 (stereo not drawn),-1%,i,3%,?,-1%,i,3%,-5%,-1.8%
COc1ccc(-c2nnc3sc(-c4ccco4)nn23)cc1OC,-5%,i,-2%,i,1%,i,?,13µM*,-1.7%
CCOC(=O)C1CCCN(C(=O)c2sc3nc(-c4ccc(OC)cc4)cn3c2C)C1 (stereo not drawn),-8%,i,2%,i,4%,i,2%,-15%,0.7%
O=C(OCC(=O)N(C1CCCCC1)C1CCCCC1)c1ccncc1,-1%,i,-7%,i,-2%,i,-2%,-29%,0.1%[57.5 µM]
N#Cc1nc(-c2ccco2)oc1N1CCN(C(c2ccccc2)c2ccccc2)CC1,-5%,i,0%,i,-3%,i,4%,3%,7.5%[0.369 µM]
CC(=O)Oc1c(C)cc(O)c2ccccc12,-5%,i,-2%,i,3%,i,4%,-14%,0.5%
Cc1cccc(N2CC3=C(C2=O)C(c2ccccc2)NC(=O)N3C)c1 (stereo not drawn),-1%,i,-6%,i,/,i,2%,-1%,-1.5%[0.369 µM]
CCC(C)c1ccc(NC(=O)C2CCCN(c3ncccn3)C2)cc1 (stereo not drawn),3%,i,-10%,i,0%,i,3%,-8%,/
CCS(=O)(=O)N1CCC(c2nc(-c3ccc(C)cc3)no2)CC1,3%,i,0%,?,-2%,i,-3%,-25%,/
COc1cccc(C2C=C(c3cccs3)Nc3ncnn32)c1OC (stereo not drawn),-3%,i,-3%,?,5%,i,2%,-9%,-0.2%
Oc1ccc(N2CCN(C(c3cccs3)c3nnnn3CCc3ccccc3)CC2)cc1 (stereo not drawn),?,i,-2%,?,0%,i,0%,3.2µM*,/
CCOC(=O)c1nc(-c2ccccc2)oc1N(C)C,0%,?,-6%,i,-2%,i,0%,4%,-0.2%[57.5 µM]
